Screening data deposited in PubChem by National Center for Advancing Translational Sciences (NCATS).
Sfp PPTase inh: qHTS Assay for Inhibitors of Bacillus subtilis Sfp phosphopantetheinyl transferase (PPTase). 4'-phosphopantetheinyl transferase ffp (Bacillus subtilis), Q9F4F7. Biochemical Sfp PPTase activity, qHTS. Potency, µM, without a hit: max response, negative = inhibition, hits mostly inhibitors. 3.5% of 310,000 active. AID 1490, 2009; active = well fitted inhibition curve with a large enough effect; inconclusive = small, poorly fitted or top-dose-only effect, or another doubt; inactive = no such curve, though single readings can be large or run the other way;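 also: the enzyme is Sfp with the accession as filed and its product quenches rhodamine fluorescence; potency is read from the fitted curve at half-maximal effect; 0% = enzyme reaction without inhibitor and -100% = no enzyme wells; top concentration of the series not given in the record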
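Compounds were incubated with enzyme (final 15 nM) for 15 min at room temperature before substrate addition started the reaction. Fluorescence at 525 nm excitation, 598 nm emission was recorded immediately and after 30 minutes.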
Menin MLL FP FL: qHTS Assay for Inhibitors Targeting the Menin-MLL Interaction in MLL Related Leukemias: Competition With Fluorescein Labeled MLL-derived Peptide; FP activity change, % at 61.4 µM; Fluorescence polarization, fluorescein-MLL peptide displacement from menin; 290,000 tested, under 10 active; AID 1766, 2009; inconclusive = falling polarisation curve, or a change in total fluorescence; inactive = total fluorescence flat and polarisation flat or rising; no compound was filed as active; the % refers to the polarisation; negative = inhibition;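 also: % of control where 0% means no effect; inhibitors lower the polarisation; unlabelled MLL peptide was the positive control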
Starred values were filed as active, the others as inactive; ? = inconclusive; & = joins results of further samples; ! = repeats disagree; [ ] = another dose, or the depositor's remark.

Sfp PPTase inh,Menin MLL FP FL,Structure
31%,5.6,CC(NNC(=O)c1ccccc1)c1ccccc1 (stereo unspecified)
-16%,0.1,COc1ccc(C2=Nn3c(nnc3-c3ccc(OC)cc3OC)SC2)cc1
15%&1%,1.4&6.6[11.7 µM],CCN1C(=O)[C@H]2[C@H]3[C@H](O)[C@H](O)C/C(=N/O[C@@H](C)c4cn([C@H](CO)Cc5ccccc5)nn4)[C@@H]3CC[C@@H]2C1=O
2%,-1.1[11.7 µM],COc1cccc([C@@H]2Oc3ccc(OC)cc3/C(=N/OC[C@@H](O)COCc3ccco3)[C@@H]2O)c1
-6%,-5.1,COc1ccccc1-c1nc(N2CCOCC2)c2ccccc2n1
14%,4.1,CC(c1ncncc1F)[C@](O)(Cn1cncn1)c1ccc(F)cc1F (stereo partly specified)
10%,1.5,CC(C)=CCc1c(O)cc(C)oc1=O
-6%,7.0[11.7 µM],CCCC[C@@H]1CN2[C@H](c3ccc(Br)cc3)[C@H](C)CC[C@H]2C(=O)O1
-9%,-0.3[11.7 µM],C[C@@H](c1ccccc1)N1C(=O)[C@H]2[C@H]3[C@H](O)[C@H](O)C/C(=N/NC(=O)OCc4ccccc4)[C@H]3CC[C@@H]2C1=O
-2%,0.4,COc1ccc2[nH]cc(CCNc3nc(-c4cccc(NS(C)(=O)=O)c4)nc4ccccc34)c2c1

The results go on:
Sfp PPTase inh,Menin MLL FP FL,Structure
1%,-1.4,CC(C)[C@@H]1NC(=O)[C@@H](Cc2ccccc2)NC(=O)[C@H](CC(=O)O)NC(=O)CNC(=O)[C@H](CCCN=C(N)N)NC1=O
31%[activator],8.0[24.8 µM],CC(=O)[C@@]1(O)CC[C@H]2[C@H]3C[C@@H](C)C4=CC(=O)C=C[C@]4(C)[C@@]3(F)[C@@H](O)C[C@]21C
-6%,-7.3,CN(C)c1ncc2nc(-c3ccc(Cl)cc3)c(=O)n(Cc3cccs3)c2n1
6%&12%,-10,Clc1ccc2c(c1)N=C(N1CCNCC1)c1ccccc1N2
0%,-3.6[11.7 µM],CC[C@@H](c1ccccc1)n1c(=O)n2n(c1=O)[C@H]1[C@H](O)[C@H]3O[C@@H]3/C(=N/OCC(C)C)[C@@H]1CC2
-8%,?,CCN1C(=O)[C@H]2[C@H]3[C@H](O)[C@H](O)C/C(=N/OC[C@@H]4O[C@H](c5ccccc5)C=C[C@@H]4Oc4ccc(OC)cc4)[C@@H]3CC[C@@H]2C1=O
7%,2.6,COC(=O)N1CCC2(CCN(C(=O)Nc3cccc(F)c3)CC2)CC1
-27%,-1.0,COc1c(O)cc2c(=O)oc3c(OC)c(O)cc4c(=O)oc1c2c34
?,0.5,COc1ccc2[nH]cc(CCNc3ccnc(-c4ccc5c(c4)OCO5)n3)c2c1
-9%,6.4,COc1ccc(C(C)=O)c(O)c1

Overlap with the part before: 6 entries; new compounds follow.
Sfp PPTase inh,Menin MLL FP FL,Structure
0%,-3.6[11.7 µM],CC[C@@H](c1ccccc1)n1c(=O)n2n(c1=O)[C@H]1[C@H](O)[C@H]3O[C@@H]3/C(=N/OCC(C)C)[C@@H]1CC2
-8%,?,CCN1C(=O)[C@H]2[C@H]3[C@H](O)[C@H](O)C/C(=N/OC[C@@H]4O[C@H](c5ccccc5)C=C[C@@H]4Oc4ccc(OC)cc4)[C@@H]3CC[C@@H]2C1=O
7%,2.6,COC(=O)N1CCC2(CCN(C(=O)Nc3cccc(F)c3)CC2)CC1
-27%,-1.0,COc1c(O)cc2c(=O)oc3c(OC)c(O)cc4c(=O)oc1c2c34
?,0.5,COc1ccc2[nH]cc(CCNc3ccnc(-c4ccc5c(c4)OCO5)n3)c2c1
-9%,6.4,COc1ccc(C(C)=O)c(O)c1
0%,-5.0,COc1ccc(C(=O)N2CCC3(CC2)CN(Cc2ccc(C#N)cc2)C3)cc1
6%,-0.6,COC(=O)NC(CCc1ccccc1)C(C(C)=O)C(=O)OC (stereo unspecified)
9%,0.2,CC(C)=CCc1c(O)cc2oc(C)cc(=O)c2c1O
10%&12%,-5.1&3.5,C[C@H](O)C(N)C(=O)O (stereo partly specified)
-1%,-1.4,Cn1c(=O)c(-c2cc(F)cc(F)c2)nc2cnc(Nc3ccccc3)nc21
13%,0.4,COCC(=O)N1CCC2(CC1)CN(Cc1ccccc1OC)C2
17%,-6.8,CC(C)[C@@H](CC(=O)N[C@@H]1CCCC[C@H]1C(=O)N[C@H](CC(=O)N[C@@H](CCC(=O)O)CC(=O)O)Cc1ccccc1)NC(=O)C[C@H](Cc1ccccc1)NC(=O)[C@@H]1CCCC[C@H]1N
13%,-2.4[11.7 µM],COc1ccc(COC(=O)N/N=C2/C[C@@H](O)[C@@H](O)[C@@H]3[C@H]4C(=O)N(c5ccc(F)cc5F)C(=O)[C@@H]4CC[C@@H]23)cc1
-20%,2.4,COc1cc(OC)cc(-c2nnc3n2N=C(c2c(OC)cccc2OC)CS3)c1
25%&8%,-0.1,CCCCC[C@H](O)/C=C/[C@@H]1[C@@H](C/C=C\CCCC(=O)O)[C@H](O)C[C@H]1O

Continued.
Sfp PPTase inh,Menin MLL FP FL,Structure
-7%,1.2[11.7 µM],COC(=O)C1=C(C(=O)OC)[C@@H]2Nc3ccccc3[C@@]23C[C@@H](C(=O)OC)N(S(=O)(=O)c2cccs2)C3=N1
3%,-1.3,CN1CCN(c2ncc3nc(CCc4ccccc4)c(=O)n(C)c3n2)CC1
-21%,12,Cc1nc2cnc(Oc3ccccc3)nc2n(-c2ccccc2)c1=O
9%,-4.7[24.8 µM],C[C@H](CCC(=O)NCC(=O)O)[C@H]1CC[C@H]2[C@H]3[C@@H](C[C@@H](O)[C@]12C)[C@]1(C)CC[C@H](O)C[C@@H]1C[C@@H]3O
22%,-1.4,Cc1cccc(/C=C/c2ccccc2)n1
19%,4.1,O=C(O)c1ccc2c(c1)C(=O)N([C@H](Cc1ccc(C(F)(F)F)cc1)C(=O)O)C2=O
30%[activator],7.6,Cc1nc2cncnc2n(Cc2ccc(F)cc2)c1=O
11%,3.9,CC(C)C1=CC2=CC[C@@H]3[C@](C)(CO)CCC[C@]3(C)C2CC1 (stereo partly specified)
?,15,CC(C)C[C@@H](CC(=O)N[C@@H](CCC(=O)O)CC(=O)O)NC(=O)[C@@H]1CNCC[C@H]1NC(=O)C[C@H](CCCN)NC(=O)C[C@H](Cc1ccccc1)NC(=O)[C@@H]1CCCC[C@H]1N
4%,8.2,CC(=O)/C(C)=N\O

Later entries.
Sfp PPTase inh,Menin MLL FP FL,Structure
3%,-1.0,COc1ccc(C(=O)N2CCC3(CCN(C)CC3)CC2)cc1
7%,-0.4,OCC1O[C@H](O[C@H]2C(O)C(O)C(O)O[C@@H]2CO)C(O)C(O)C1O (stereo partly specified)
7%,1.0[11.7 µM],C/C=C\C1=C(CO)[C@H](O)[C@H]2OC2[C@@H]1O (stereo partly specified)
-3%,10,O=C(Nc1ccccc1)N1CCCC2(CCNCC2)C1
?,-0.4,FC(F)(F)c1ccccc1-c1nccc(-n2ccnc2)n1
13%,1.0,COc1cc(O)ccc1C(C)=O
7%,2.8,Clc1cccc(C(c2ccc3nc[nH]c3c2)n2ccnc2)c1 (stereo unspecified)
-22%,-1.5,COc1ccc(SCC(Cc2ccccc2)N2CCN(CC(C)C)CCC2=O)cc1 (stereo unspecified)
-5%&13%,?,Cc1ccc2c(c1)c1c3n2CCN[C@H]3CCC1
7%,-0.8[11.7 µM],CO[C@H]1COC(=O)[C@@H](C)COC(=O)[C@@H](COCc2ccccc2)NC(=O)C/C=C\[C@H]1C

(cont.)
Sfp PPTase inh,Menin MLL FP FL,Structure
7%,-0.1,COc1ccc(Oc2ncc3nc(-c4cccc(C#N)c4)c(=O)n(CCC#N)c3n2)cc1
-13%,-1.1,CC(C)CCC[C@@H](C)[C@H]1CC[C@H]2[C@@H]3CC=C4CC(O)CC[C@]4(C)[C@H]3CC[C@]12C (stereo partly specified)
20%,3.0,CN(C)Cc1ccccc1-c1cc(Nc2ccccc2)ncn1
15%,0.9,O=C(Nc1ccc(Br)cc1)c1cccc(S(=O)(=O)Nc2ccc(Br)cc2)c1
17%,-5.4[24.8 µM],CCC(=O)OCC(=O)[C@@]1(OC(=O)CC)[C@H](C)C[C@@H]2[C@@H]3[C@H]([C@@H](O)C[C@@]21C)[C@]1(C)C=CC(=O)C=C1C[C@@H]3Cl
-15%,1.1,NCCC[C@@H](CC(=O)N[C@@H]1CCCC[C@H]1C(=O)N[C@H](CC(=O)N[C@@H](CCC(=O)O)CC(=O)O)Cc1c[nH]c2ccccc12)NC(=O)C[C@H](Cc1ccccc1)NC(=O)[C@@H]1CNCC[C@H]1N
21%,-7.0,CC(C)NC(=O)[C@@H]1C[C@H]1[C@@H](NC(=O)OCc1ccccc1)c1ccccc1
18%,-5.0,O=C(O)c1ccc(NS(=O)(=O)c2ccsc2C(=O)O)cc1
7%,-8.4,N#CCCCS(=O)(=O)c1nnnn1-c1ccc(F)cc1Br
9%,-1.4,CC(=O)NCCNc1cc(-c2ccccc2C)ncn1

(more compounds)
Sfp PPTase inh,Menin MLL FP FL,Structure
1%,-0.2,C=CCCCCCCCCCBr
28%,0.7,C=CCNC(=O)c1cc([N+](=O)[O-])cc2c(=O)[nH]c(Nc3ccc(Cl)c(Cl)c3)nc12
3.2µM*,?,NCCNCCN
20%,1.1,COc1ncc2ncc(=O)n(Cc3ccc(F)cc3)c2n1
-13%,-1.4[11.7 µM],COC(=O)C(C(C)=O)C1c2ccccc2C=C(C)N1C(=O)OC (stereo unspecified)
-5%,0.0[11.7 µM],COc1ccc(COC(=O)N/N=C2/C[C@@H](O)[C@@H](O)[C@@H]3[C@@H]4C(=O)N(c5cccc(Oc6ccccc6)c5)C(=O)[C@H]4CC[C@H]23)cc1
?,21,CC(=O)N1CCC2(CCCN(c3cccc(-c4ccccc4)c3)C2)CC1
56µM*!,21,C[C@@H](CCc1ccc(O)cc1)NCCc1ccc(O)c(O)c1
-7%,-0.8[94.6 µM],CCOc1ccccc1-c1ccc(C(=O)O)s1
14%,-12,CN(C)c1ncc2nc(-c3ccc(Cl)cc3)c(=O)n(C)c2n1

Going on with the list.
Sfp PPTase inh,Menin MLL FP FL,Structure
19%,3.2,CC1CC[C@@]2(C(=O)O)CC[C@]3(C)C(=CCC4[C@@]5(C)CCC(O)C(C)(C)C5CC[C@@]43C)C2C1C (stereo partly specified)
2%,1.6,C[C@@H](C(=O)NCc1ccc(C(F)(F)F)nc1)[C@H]1C[C@]1(C)[C@H](NC(=O)OCc1ccccc1)c1ccccc1
-1%&22%,7.7&-3.5,Cc1cc(O)c(C(C)C)cc1Cl
-8%,0.2,CN1CCN(c2ncc3nc(-c4ccc(F)cc4)c(=O)n(C4CC4)c3n2)CC1
-5%,-1.4,Nc1ccccc1C(=O)/C=C/c1ccccc1
-1%,-2.7,C=CCOC(=O)NC(c1ccc(F)c(F)c1)S(=O)(=O)c1ccc(Cl)cc1 (stereo unspecified)
-6%,4.5,CCOC(=O)CNC(=O)O[C@@H]1C(=O)c2cc(OC)ccc2O[C@H]1c1cccc(OC)c1
-15%,5.9,O=C(c1csnn1)N1CCC2(CCCN(C(c3ccccc3)c3ccccc3)C2)CC1
16%,-0.5[11.7 µM],COc1ccc(-c2nc3c(c4c2C[C@H](c2ccccc2)OC4)CN(C(=O)NCCc2c[nH]c4ccccc24)CC3)c(C)c1
-16%,?,Cn1c(=O)c(-c2cccs2)nc2cncnc21

Further compounds.
Sfp PPTase inh,Menin MLL FP FL,Structure
?,2.6,CC1(C)SC2C(N3C(=O)C(c4ccccc4)NC3(C)C)C(=O)N2C1C(=O)O (stereo unspecified)
1%,?,COCCn1c(=O)c(-c2ccc(Cl)cc2)nc2cnc(N(C)C)nc21
14%,-6.7,CNC(=O)C1(C)C=CCN1C(=O)OC (stereo unspecified)
-5%,5.5&-0.3,O=C(O)CCCC[C@@H]1CCSS1
11%,1.8,O=C(Nc1cccc(F)c1)N1CCCC2(CCN(C(=O)c3ccco3)CC2)C1
-2%,?,CN(C)c1ncc2nc(-c3ccc(Cl)cc3)c(=O)n(Cc3ccc(F)cc3)c2n1
22%,0.5,COC(=O)[C@H]1C[C@@H]1[C@H](NC(=O)c1cc(C)nn1C)c1ccccc1
1%,4.0,CC(=O)NC(C(=O)O)C(C)(C)SN=O (stereo unspecified)
-5%,1.7,C=C1CCN(C(CC(C)C)C(=O)Nc2ccc(OC)cc2)S(=O)(=O)c2ccccc21 (stereo unspecified)
0%,-0.8[11.7 µM],COC1(C#CC2C=CC(OC(C)=O)C(COC(C)=O)O2)CCCCC1 (stereo unspecified)

The results go on.
Sfp PPTase inh,Menin MLL FP FL,Structure
-2%,-4.4,CC(=O)c1ccc[nH]1
8%,-0.4,N#Cc1cccc(-c2nc(N3CCNCC3)c3ccccc3n2)c1
-3%,17,COC(=O)[C@H]1Cc2c([nH]c3ccccc23)CN1C(=O)COc1ccc2c(C)cc(=O)oc2c1
10%,-4.3,C[C@H]1/C=C\CC(=O)NCc2cccc(c2)CNC(=O)N[C@H]1c1ccccc1
25%,2.7,COCC(=O)N1CCC2(CCCN(C(=O)Nc3ccccc3)C2)CC1
19%,-0.8,CCCn1c(C)nc2c(N3CCCN(Cc4ccccc4)CC3)nc(C)nc21

A portion of the library, so the mix of outcomes need not match the whole.
